MenB inh: M. tuberculosis MenB inhibitors, primary screen, biochemical, absorbance; MenB enzyme assay, absorbance read-out; some hits fall short of the stated cut; inhibition, %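 (about 12 µg/mL by stock and volumes)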; actives 0.43% (n = 100,000);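 active means mean of two replicates above 30%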;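 further: 0% = no compound and 100% = wells with inactive enzyme; the first replicate is given; strong numbers were not always called active; inactives centre near -10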
Target sequence (P9WNP5 whole entry, looked up): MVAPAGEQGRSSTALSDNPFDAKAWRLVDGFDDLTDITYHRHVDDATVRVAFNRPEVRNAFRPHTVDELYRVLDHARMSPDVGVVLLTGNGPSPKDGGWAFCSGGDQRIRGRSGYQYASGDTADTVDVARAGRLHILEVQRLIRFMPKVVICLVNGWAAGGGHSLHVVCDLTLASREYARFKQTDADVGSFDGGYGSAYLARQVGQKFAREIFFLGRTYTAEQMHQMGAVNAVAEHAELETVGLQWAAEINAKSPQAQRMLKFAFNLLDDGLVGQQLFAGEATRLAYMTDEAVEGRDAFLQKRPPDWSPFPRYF
PV pol inh: poliovirus RdRp elongation inhibitors, primary screen, biochemical, fluorescence polarization, total intensity; actives 0.66% (n = 150,000); Genome polyprotein (Poliovirus type 1 (strain Mahoney)), P03300; poliovirus polymerase elongation; stronger effect = lower value; % elongation, % (compound at 16.7 µg/mL); in the data active means % elongation below about 90%; further: some results filed as inactive read as strong as hits
MbtI inh: MbtI salicylate synthase inhibitors, primary screen, biochemical, fluorescence intensity; purified MbtI enzyme, fluorescence intensity read-out; inhibition, %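 (about 17 µg/mL by stock and volumes)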; actives 0.89% (n = 100,000);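 active means above 50% in both replicates, above 80% if mildly self-fluorescent; inactive means the rest, strongly fluorescent compounds included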;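 further: 0% = mean of negative and 100% = mean of positive controls; one replicate is shown; some compounds called inactive have numbers as strong as hits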
Target sequence (P9WFX0 whole entry, looked up): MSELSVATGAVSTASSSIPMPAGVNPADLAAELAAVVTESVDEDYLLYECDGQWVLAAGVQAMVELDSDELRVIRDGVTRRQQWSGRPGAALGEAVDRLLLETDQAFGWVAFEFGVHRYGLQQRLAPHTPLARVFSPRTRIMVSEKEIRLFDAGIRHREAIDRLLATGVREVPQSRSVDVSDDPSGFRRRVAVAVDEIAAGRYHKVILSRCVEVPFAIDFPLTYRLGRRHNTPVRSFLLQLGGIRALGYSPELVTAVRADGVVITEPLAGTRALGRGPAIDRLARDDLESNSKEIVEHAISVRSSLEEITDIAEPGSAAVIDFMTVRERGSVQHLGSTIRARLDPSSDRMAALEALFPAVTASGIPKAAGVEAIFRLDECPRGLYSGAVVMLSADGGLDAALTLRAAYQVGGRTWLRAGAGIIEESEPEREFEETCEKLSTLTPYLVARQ
PV pol inh intensity: recorded beside PV pol inh, whose call it bears; % elongation; measured here: total intensity read-out; formula for this scale not given here;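 total fluorescence in place of polarization; lower means less elongation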
Active calls of the source: *; i = inactive; / = not tested or not shown; & = joins results of further samples. No enrichment for hits, and some 2% of all compounds hit somewhere here.

canonical_smiles,MenB inh,MbtI inh,PV pol inh intensity,PV pol inh
NC(=O)c1c(F)c(F)c(N)c(F)c1F,-19,/,96,104
CCCc1nnc(SCC(=O)NC2CC2)n1CC,-60,-2,101,103
CC1CCCC(NC(=O)CSc2nc3ccccc3o2)C1C (stereo unspecified),6,-1,100,101
O=C(CC1CCCCCCCCCCC1)N1CCOCC1,-41,1,95,102
Cc1ccc(-c2nc3cc(NC(=O)COc4ccccc4)ccc3o2)cc1,-44,i,102,101
CN(CC(C)(C)NS(=O)(=O)c1ccccc1)C1CCCCC1,/,-9,99,102
C(=NCc1ccccc1)c1cn(-c2ccccc2)nc1-c1cc2ccccc2o1,-11,9,98,104
CCN1CCCC1CNC(=O)c1c(C)nn(-c2ccc(F)cc2)c1-n1cccc1 (stereo unspecified),6,-1,103,101
CN(C)CCNC(=O)c1cc2c(s1)-c1ccccc1S(=O)(=O)C2,5,105,101,101
CN1C/C(=C/c2ccccn2)C(=O)/C(=C/c2ccccn2)C1,/,6,108,102
CN1CCC/C1=C/C=C1\SC(=S)NC1=O,-14,/,259,46
COc1ccc(C(F)(F)F)cc1-n1ccc(-c2ccc(C)cc2)nc1=S,13,-2,104,103
COC(=O)Cn1c(=O)c2c(nc3n2CCN3c2ccccc2)n(C)c1=O,-18,23,105,102
CC(=O)Oc1ccc(C)cc1C(O)(C(F)(F)F)C(F)(F)F,-8,/,107,107
CCn1cc(CCC(=O)NC2CCCC2)c2ccccc21,-7,123,103,102
O=S(=O)(c1ccc(NC2CCC(O)CC2)nc1)N1CCCC1 (stereo unspecified),-19,102,105,102
Cc1ccsc1-c1nc(CSCC(=O)O)c(C)o1,-15,106,95,103
COc1ccc(OC)c(C2NC(C(=O)O)C3C(=O)N(c4cccc(C(=O)O)c4)C(=O)C23)c1 (stereo unspecified),-1,-1,95,99
O=C(c1cccs1)c1cn(CC(=O)N2CCCCCC2)c2ccccc12,-27,-7,99,102
COc1ccc(/C=C(\C#N)C(=O)NCc2ccco2)cc1C,-17,-4,103,102
O=C1c2ccccc2-c2nn(C(=O)c3ccncc3)c3cccc1c23,8,5,102,104
O=C1NC(=O)N(c2ccc(Cl)cc2)C(=O)/C1=C/c1ccc(Cl)cc1,-7,43,96,102
O=C(COC(=O)c1ccc(F)cc1Cl)NCc1ccco1,/,23,96,101
CC(=O)Nc1ccc(NC(=O)c2cccc(C(=O)OC(C)C)n2)cc1,1,-6,96,101
Cc1ccc(-c2csc3ncn4nnnc4c23)cc1,-25,1,102,103
Cc1ccc(NC(=O)c2cccc(OC(=S)NCc3ccccc3)c2)cc1,-10,-1,104,100
O=C(O)CC(NCc1ccco1)C(=O)Nc1ccc(Cl)cc1 (stereo unspecified),-24,-2,99,99
Cc1nc2cc(S(=O)(=O)N3CCC(C(=O)NC4CCCCC4C)CC3)ccc2n1C1CCCC1 (stereo unspecified),14,-2,99,101
CSC(=S)N/N=C/c1ccccc1,-59,-11,102,103
CCCN(CCC)C(=O)CC(c1ccccc1)c1cc(C)ccc1O (stereo unspecified),-20,-8,102,103
CCCCc1nnc2sc(NC(=O)COc3ccc(C)c(C)c3)nn12,5,20,101,101
COc1ccc(S(=O)(=O)N(CCc2ccccc2)CC(N)=O)cc1,5,-11,103,99
O=C(COc1ccccc1)NN=C1CCCCC1,-9,5,101,102
C=C(C)CN1CCN(c2cc(-c3ccccc3)c(C#N)c3nc4ccccc4n23)CC1,6,8,110,93
Cc1nc(NCc2ccccc2)ncc1C(=O)O,-6,12,101,100
COc1ccc(NCC(O)Cn2nnnc2-c2ccccc2)cc1OC (stereo unspecified),-14,1,102,101
COc1ccc(CONS(=O)(=O)c2ccc(NC(C)=O)cc2)cc1Cl,1,-14,106,103
COc1ccc2c(c1)S(=O)(=O)c1ccccc1N2,/,-21,98,103
CCCS(=O)(=O)N1CCN(Cc2ccco2)CC1,10,4,98,102
O=C(NC1=NCCS1)C12CC3CC(C1)CC(C(=O)NC1=NCCS1)(C3)C2,-10,-7,100,101

Shown field by field: part of the list above
C=C(C)CN1CCN(c2cc(-c3ccccc3)c(C#N)c3nc4ccccc4n23)CC1
- MenB inh = 6
- MbtI inh = 8
- PV pol inh intensity = 110
- PV pol inh = 93
CCCS(=O)(=O)N1CCN(Cc2ccco2)CC1
- MenB inh = 10
- MbtI inh = 4
- PV pol inh intensity = 98
- PV pol inh = 102
Cc1nc(NCc2ccccc2)ncc1C(=O)O
- MenB inh = -6
- MbtI inh = 12
- PV pol inh intensity = 101
- PV pol inh = 100

Other compounds.
canonical_smiles,MenB inh,MbtI inh,PV pol inh intensity,PV pol inh
Cc1ccc(-n2c(SCC(N)=O)nc(O)c(C)c2=O)cc1,-3,-4,102,103
COc1cc(OC)c(NC(=O)c2cc3ccccc3cc2O)cc1Cl,/,-18,102,102
Cn1nc(C(F)(F)F)cc1C(=O)O,13,/,94,102
N#CC(C#N)=Cc1sc2ccccc2c1Cl,5,2,102,100
COc1ccc(/C=C/C(=O)N2CCCc3ccccc32)cc1OC,/,2,104,100
O=C(CN1C(=O)c2ccccc2C1=O)Oc1ccc(F)cc1,6,-4,103,99
Cc1c(NC(=O)CN2C(=O)c3cccc4cccc2c34)c(=O)n(-c2ccccc2)n1C,7,0,104,100
Cc1ccc(NC(=O)COC(=O)c2ccccc2S(C)=O)cc1C (stereo unspecified),-9,-8,105,101
O=c1oc2ccccc2nc1/C=C(\O)c1cccs1,5,1,116,104
CCOc1ccc(S(=O)(=O)N2CCN(Cc3ccc4c(c3)OCO4)CC2)c2ccccc12,1,101,102,103
Cc1nc(=O)c(-c2ccccc2)c(C)n1CCc1cnc[nH]1,-7,-14,99,99
Cn1cc(C2CC(=O)N(c3ccc(Br)cc3)C2=O)c2ccccc21 (stereo unspecified),-16,-14,109,104
O=C1CN(/N=C/c2ccc([N+](=O)[O-])o2)C(=O)N1,-6&0,12&-1,102&98,99&102
COc1cccc(-c2cc(C(=O)N3CCc4ccccc4C3)[nH]n2)c1,-33,-10,97,103
O=S(=O)(NC1=NCCCN1)c1cc(C(F)(F)F)cc(C(F)(F)F)c1,-9,-7,104,100
CC(NC(=O)COc1ccccc1)C(=O)N1CCN(c2ccccc2)CC1 (stereo unspecified),-14,-2,104,102
CCOc1ccccc1NC(=O)/C(C#N)=c1\s/c(=C\c2ccco2)c(=O)n1-c1c(C)cccc1C,-4,-2,109,101
CSC1=NCCN1C(=O)C1c2ccccc2Oc2ccccc21,-21,-8,106,102
COc1cc(C(=O)Nc2cccc(O)c2)c2ccccc2n1,/,-5,103,99
O=C(O)c1ccccc1Cc1cccs1,-24,-3,102,101
Cn1c(CSc2nc(N)cc(N)n2)nnc1SC/C=C/c1ccccc1,-2,-3,/,/
C=CCNC(=S)N/N=C1\CCc2ccccc21,-10,1,106,104
CC(=O)Nc1ccc(NC(=O)C(C)Oc2ccccc2)cc1 (stereo unspecified),/,-4,97,98
CCN(CC)c1nc2ccccc2c(=O)n1-c1ccccc1,-4,/,105,103

Among those listed so far, 4 contain a CF3 group.
canonical_smiles,MenB inh,MbtI inh,PV pol inh intensity,PV pol inh
COc1ccc(C(F)(F)F)cc1-n1ccc(-c2ccc(C)cc2)nc1=S,13,-2,104,103
CC(=O)Oc1ccc(C)cc1C(O)(C(F)(F)F)C(F)(F)F,-8,/,107,107
Cn1nc(C(F)(F)F)cc1C(=O)O,13,/,94,102
O=S(=O)(NC1=NCCCN1)c1cc(C(F)(F)F)cc(C(F)(F)F)c1,-9,-7,104,100

Further results follow.
canonical_smiles,MenB inh,MbtI inh,PV pol inh intensity,PV pol inh
C/C(=N\NC(=O)c1cc2c3ccccc3n(C)c2s1)c1ccc(OCC(N)=O)cc1,-46,-161,117,116
CCC(CC)c1nnc(NC(=O)c2cccs2)s1,-5,17,104,100
COc1ccc(C(CNC(=O)Nc2ccc(C)cc2)N2CCCC2)cc1 (stereo unspecified),-3,-2,107,102
CC1=NN(c2nc3ccccc3[nH]2)C(=O)C1Cc1ccccc1 (stereo unspecified),-74,76*,108,107
Cc1cc(NC(=O)c2ccc(Cl)c(Cl)c2)ccc1NC(=O)c1ccco1,-15,71,101,103
COc1ccc(OC)c(-c2nc(N)sc2N=Nc2cccnc2)c1,-95,25,89,101
O=C(O)c1ccc2c(c1)C(=O)N(C1=NCCS1)C2=O,0,-22,102,99
CCOC(=O)c1c(C)n(-c2ccc(C)cc2)c2ccc(OCC(O)CNCc3ccco3)cc12 (stereo unspecified),-40,-15,101,105
O=C(NCc1ccco1)c1ccc2c(O)c(S(=O)(=O)c3ccccc3)c(=O)[nH]c2c1,-7,10,101,97
O=C1CC(c2ccccc2)c2cc3c(cc2N1)OCCO3 (stereo unspecified),7,1,102,100
C[C@H](NC(=O)c1ccco1)C(=O)Nc1cc(Cl)ccc1N1CCCC1,-7,-12,104,100
COc1cccc(/C=C2/NC(=O)N(c3ccccc3)C2=O)c1,-17,6,95,103
C(=C\c1ccccc1)/CNCCSc1nnnn1-c1ccccc1,-1,21,105,103
N[C@@H](Cc1cc(I)c(Oc2cc(I)c(O)c(I)c2)c(I)c1)C(=O)O,1&-1,-7&-16,103&100,100&100
OC[C@H]1NC[C@H](O)[C@@H](O)[C@@H]1O,/,1,101,101
CNC(=O)c1c[nH]c2ccc(S(=O)(=O)Nc3cccc(OC)c3)cc2c1=O,-2,16,102,101
Cc1cc(-c2ccc(S(=O)(=O)NCCN3CCCC3)s2)on1,16,41,103,100
O=C(/C=C/c1cccc(N2C(=O)C3C4C=CC(C4)C3C2=O)c1)NCc1ccco1 (stereo unspecified),-18,-9,102,100
Cc1cc(=O)[nH]c(SCC(=O)Nc2ccc(N3CCCC3)cc2)c1C#N,-4,17,108,103
CNC(=O)n1cc(C)c(-c2cccs2)n1,8,14,91,98
Cc1cccc(C)c1NC(=O)CNC(=O)CSc1nnc(-c2cccnc2)n1Cc1ccco1,9,17,105,107
Cc1cc(CN2CCc3ccccc3C2)cs1,-2,-9,102,103
N#Cc1c2c(c(N3CCOCC3)[nH]c1=S)CCCC2,-18,5,101,104
O=C(OCc1c(F)cccc1Cl)c1ccccc1N1CCCC1=O,-17,3,105,102
CC(=O)NCc1ccc(C(=O)COC(=O)c2cc(-c3ccccc3)nn2-c2ccccc2)o1,-32,3,109,106
Cc1cc(C(=O)Nc2ccccc2)c(-c2ccccc2)o1,-16,/,107,100
N#CC(c1ccc(O)cc1)N1CCN(C(C#N)c2ccc(O)cc2)CC1 (stereo unspecified),-9,3,102,103
C=C(NC(=O)C(=C)NC(=O)c1csc(C2=NC3c4csc(n4)C4NC(=O)c5csc(n5)C(C(C)(O)C(C)O)NC(=O)C5CSC(=N5)C(=CC)NC(=O)C(C(C)O)NC(=O)c5csc(n5)C3(CC2)NC(=O)C(C)NC(=O)C(=C)NC(=O)C(C)NC(=O)C(C(C)CC)NC2C=Cc3c(C(C)O)cc(nc3C2O)C(=O)OC4C)n1)C(N)=O (stereo unspecified),-6,26,99,101
COc1cc2[nH]c(=S)n(C3CC3)c(=O)c2cc1OC,7,7,105,100
CCOC(=O)C1CCCN(C(=O)c2cccc(C)c2)C1 (stereo unspecified),10,/,97,102
O=C(NCc1ccc2c(c1)OCO2)c1cccnc1,25,36,102,102
O=c1oc2cc(OCc3c(F)cccc3F)ccc2c2c1CCC2,-12,22,102,99
CN(C)CCn1c(=O)n(C)c(=O)c2[nH]cnc21,2,-10,103,100
C=CCNCc1ccc(-c2ccc(OC)c(Cl)c2)o1,2,14,99,101
CCOc1ccc(N(/C=C2\Sc3ccccc3C2=O)C(=O)c2ccc(C)cc2)cc1,-20,1,155,131
CCOC(=O)CC1=NN=C(N)SC1,-51,-3,95,101
CCn1c(C(=O)NCCc2ccccc2)cc2sc(Cl)cc21,-16,-2,104,100
COc1ccc(F)cc1S(=O)(=O)N1CCN(c2c(C)cc(C)cc2C)CC1,0,-13,105,102
COc1cc(C2C(=O)N(C3CCC(C)CC3)CC(=O)N2Cc2ccc3c(c2)OCO3)ccc1OC(C)C (stereo unspecified),-10,-7,102,101
Cc1cccc(NC(=O)C2Sc3nnc(-c4ccccc4)n3NC2c2ccccc2)c1 (stereo unspecified),-9,-8,108,105
O=C(COc1ccccc1F)Nc1ccc(I)cc1,/,0,110,106
O=C(Nc1ncn[nH]1)C(F)(F)C(F)F,-3,-24,102,101
Cc1cc(C(=O)CSc2ccc(S(=O)(=O)N3CCCCC3)cn2)c(C)n1Cc1ccco1,-8,-4,106,99
CCOc1ccc(-c2nc(C#N)c(NCC(C)C)o2)cc1,5,i,103,101
Cc1cc(N2CCNCC2)nc(C(C)C)n1,14,-4,103,102
Cc1ccc(C)c(S(=O)(=O)Nc2ccc(C(=O)N3CC(C)OC(C)C3)cc2)c1 (stereo unspecified),-16,-5,102,101
CNC(=O)c1ccc2snnc2c1,-22,5,106,101
CC1=NNC(=O)C1C(c1ccccc1F)C(C#N)C#N (stereo unspecified),-18,/,106,105
CCc1c(C)nc2[nH]nc(NC(=O)C(F)(F)F)n2c1=O,-4,24,102,100
